HCMV NEC inh = inhibitors of HCMV UL50-UL53 interaction, biochemical, HTRF; normalized percent inhibition; inhibition, % (test concentration not listed); hit rate 0.15% among 190,000; HCMV UL50-UL53 nuclear egress complex (human cytomegalovirus);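 active means both replicates at 50% or more, plus weaker picks with an unusually low signal ratio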;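 further: stock transfer was 100 nL into about 20 µL; 0% = negative control wells and 100% = wells with untagged competitor protein; inactives centre near -12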
GIV-Gai inh = inhibitors of GIV peptide binding to Galpha-i3, primary screen, biochemical, fluorescence polarization, FITC-GIV GBA peptide, rat Galphai3; Guanine nucleotide-binding protein G(i) subunit alpha-3 (Rattus norvegicus), P08753; hit rate 0.42% among 210,000; percent of control (FP), % (no concentration beside the values); AID 1224905, 2016; 90 min; stronger effect = lower value; scaled: aluminum fluoride 0%, vehicle 100%;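 active means replicate mean at 85% of control or lower, very high polarization wells dropped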;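 further: wells of about 15 µL received 100 nL stock; the first replicate is given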
Target sequence (P08753 whole entry, looked up): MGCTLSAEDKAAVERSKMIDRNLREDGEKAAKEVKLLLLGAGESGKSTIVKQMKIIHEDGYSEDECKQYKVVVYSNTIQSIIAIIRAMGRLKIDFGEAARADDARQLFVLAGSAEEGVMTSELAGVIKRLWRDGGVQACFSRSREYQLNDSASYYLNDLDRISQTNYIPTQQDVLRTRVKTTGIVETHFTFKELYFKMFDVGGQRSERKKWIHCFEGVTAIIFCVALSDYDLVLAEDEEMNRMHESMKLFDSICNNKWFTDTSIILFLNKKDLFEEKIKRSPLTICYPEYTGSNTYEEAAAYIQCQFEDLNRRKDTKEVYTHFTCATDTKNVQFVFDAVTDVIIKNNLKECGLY
Sa growth 42C = S. aureus growth inhibition at 42 and 30 °C, primary screen, LtaS inhibitor project, RN4220, two temperatures. AID 720641, 2013. hit rate 0.53% among 170,000. OD600, 20 h, 42 °C; stronger effect = lower value. relative growth, % (test concentration not listed);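 active means growth at 42 °C up to 50% and 20 or more points under that at 30 °C, or under 10% at both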;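 further: 300 nL library stock went into each well; scaled to the means of positive and negative controls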
Sa growth 42C second temp = further read-out of Sa growth 42C, marked with its call; relative growth, %; measured here: growth at 30 °C;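 optical density after 20 h as mean of two plates; 100% = untreated growth and lower means inhibition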
The depositor's hits bear a star; x = not tested or not shown; & = joins results of further samples.

SMILES | HCMV NEC inh | GIV-Gai inh | Sa growth 42C | Sa growth 42C second temp
C#CC(C)(CC)NC(=O)Cn1nnc(-c2ccc(OCc3ccccc3F)cc2)n1 (stereo not given) | -2 | 103 | 102 | 92
CC(C)(C)OC(=O)N1CCC(CNS(=O)(=O)c2cccc3cccnc23)CC1 | -35 | 104 | 97 | 87
COc1ccc(S(=O)(=O)N(CC(=O)NCCSCc2ccccc2)c2ccc(C)cc2)cc1OC | -14 | 99 | x | x
C=COC(=O)CSc1nc(C)cc(C)c1C#N | -69 | x | 108 | 81
O=c1c2ccccc2nc2ccc(NCc3cccs3)nn12 | -55 | 109 | 85 | 78
CC(C)(C)SCC(=O)Nc1cccc2ncccc12 | -36 | x | 87 | 89
O/N=C/c1ccc[n+](C/C=C/c2ccccc2)c1 | x | 101 | 104 | 89
CCOc1ccc(-n2nnc(C)c2C(=O)N2CCC(C(N)=O)CC2)cc1 | -11 | 106 | 83 | 88
N#CC(C#N)=C1SC=C(c2ccc(Cl)cc2)S1 | -3 | 105 | 102 | 99
COC(=O)c1ccc(Oc2nc(N)nc(N(C)C)n2)cc1 | 22 | 105 | 87 | 82
N#CCC(=O)c1cccc(CSc2cccc(C(F)(F)F)c2)c1 | -7 | 100 | 90 | 70
Cc1ccc(SCC(=O)N[C@@H]2C[C@H]3CC[C@@H]2C3)cc1 | -9 | x | 107 | 85
COc1ccc(NC(=O)c2c(NC(=O)COc3ccccc3)sc3c2CCC(C(C)(C)C)C3)cc1 (stereo not given) | -26 | 105 | 105 | 91
CCOc1cc(CN2CCN(S(=O)(=O)c3ccc(C)cc3)CC2)ccc1OC | 17 | 106 | 111 | 101
CN(C(=O)CSc1nc(O)cc(=O)n1C1CCCC1)c1ccccc1 | -26 | x | 99 | 78
CC(C)CC(=O)N1CCN(CC2CC=CCC2)CC1 (stereo not given) | -9 | 103 | 100 | 82
O=C(CSc1nc(-c2ccc(F)cc2)[nH]c1-c1ccc(F)cc1)Nc1ccc2c(c1)OCCO2 | -15 | 104 | 116 | 81
O=C1CCCCCC1CN1CCCCC1 (stereo not given) | -12 | x | 98 | 89
C=CCNC(=S)Nc1nccs1 | 0 | x | 80 | 91
CCC(C)(C)NS(=O)(=O)c1cc(C(=O)N2CCCC2)cs1 | -36 | 105 | x | x
Cc1cc2c(cc1C)N(C(=O)CSc1nncn1C)C(C)(C)c1ssc(=S)c1-2 | -34 | 104 | x | x
CC(=O)Oc1cc(-c2nc3ccccc3o2)cc(-c2nc3ccccc3o2)c1 | -7 | 103 | 92 | 92
Cc1cc(-c2ccc(S(=O)(=O)N(C)Cc3ccccc3)cc2)on1 | -27 | 95 | 97 | 90
CCN(CC)C(=O)CCc1nc(-c2cccc(OC)c2)no1 | x | 99 | 75 | 86
CCC(CO)NCc1sccc1C (stereo not given) | -6 | 105 | 97 | 92
CCSc1nnc(-c2ccccc2NC(=O)CC)c(=O)[nH]1 | x | 105 | 116 | 90
O=C(CCC1CCCC1)N1CCN(C(=O)c2cc(-c3ccccn3)n[nH]2)CC1 | -6 | 99 | x | x
CCCCN(C(=O)Cn1ncc2c1-c1cc(C)ccc1OC2)C1CCN(C(C)=O)CC1 | -7 | 104 | 88 | 88
CCOc1ccc(-c2cc(C(=O)NCc3ccncc3)c3ccccc3n2)cc1 | -21 | 105 | x | x
NC(=O)C1CCN(CCS(=O)(=O)c2ccccc2)CC1 | -7 | 98 | 93 | 90
O=C(CCN1C(=O)c2ccccc2C1=O)Nc1ccc(Br)cn1 | -20 | 99 | x | x
Cn1cc(CCCC(=O)O)c2ccccc21 | -10 | 98 | 90 | 103
CCOC(=O)C1OC(c2ccccc2)OC1C(=O)OCC (stereo not given) | 7 | x | 104 | 95
Cn1nnnc1SCCNCc1ccccc1OCc1ccc(Cl)cc1Cl | -8 | 100 | 103 | 49
COc1ccc(Nc2c(C(=O)N3CCOCC3)cnc3ccccc23)c(OC)c1 | -8 | 100 | x | x
Cc1nc2ccc(NC(=O)c3ccc(S(=O)(=O)N4CCCCC4)cc3)cc2s1 | -3 | 99 | x | x
COc1ccc(C2CC(=O)C3=C(C2)NC(C)=C(C#N)C3c2ccc(OC(C)=O)c(OC)c2)cc1 (stereo not given) | -56 | 101 | x | x
Cc1ccn2cc(-c3ccc(C)c(NS(=O)(=O)c4ccc(Cl)cc4)c3)nc2c1 | -10 | 102 | 105 | 94
COC(=O)c1cc(-c2cccc(N)c2)nc2ccccc12 | -38 | 102 | 117 | 81
Cc1ccc(C(c2nnnn2C(C)(C)C)N2CCC(C)CC2)cc1 (stereo not given) | -12 | 104 | 110 | 95
CC(C)N1C(=S)SC(C)(C)C1n1oc(=O)n(-c2cccc(Cl)c2)c1=O (stereo not given) | -22 | x | 80 | 85
CCOc1ccccc1NS(=O)(=O)c1cc(-c2cnc(C3CC3)o2)ccc1C | x | 101 | 129 | 102
Cc1cc(C)c(C(=O)COC(=O)c2nccnc2N)cc1C | -76 | x | 83 | 77
CNC(=O)N1CCc2cc(S(=O)(=O)Nc3ccc(F)cc3F)ccc21 | 9 | 101 | x | x
CNC(=O)CCc1cn(Cc2ccc(C)cc2)c2ccccc12 | x | 108 | 110 | 89
NC(=O)CSc1ccc(Cl)cc1 | -10 | 103 | 110 | 89
COc1ccccc1OCCOc1ccc(F)cc1 | -2 | 101 | 80 | 98
COc1ccc(-c2nc3n(c2NC(C)(C)C)CCN(C(=O)Cc2ccccc2F)C3)cc1 | -1 | 97 | 93 | 79
O=C1C=CC(=O)C(C2=C3C(=O)N(Cc4ccccc4)CC(=O)N3CCC2)=C1 | -34 | 102 | 76 | 42
CCOC(=O)C1=C(C)N(C)C(C)=C(C(=O)OCC)C1c1ccc(C)s1 | x | 105 | 90 | 90
Additional entries follow.
SMILES | HCMV NEC inh | GIV-Gai inh | Sa growth 42C | Sa growth 42C second temp
CC(Oc1ccccc1)C(=O)NC1CC(C)(C)NC(C)(C)C1 (stereo not given) | -5 | 101 | 108 | 102
CC[C@H]1OC(=O)[C@H](C)[C@@H](O[C@H]2C[C@@](C)(OC)[C@@H](O)[C@H](C)O2)[C@H](C)[C@@H](O[C@@H]2O[C@H](C)C[C@H](N(C)C)[C@H]2O)[C@](C)(OC)C[C@@H](C)C(=O)[C@H](C)[C@@H](O)[C@]1(C)O | -23&-39 | 106 | -0.8* | -0.5*
COc1ccc(-c2csc3ncnc(Nc4ccccc4)c23)cc1 | x | 105 | 95 | 89
CCCCSc1nnc2c(n1)OC1(Nc3ccccc3-2)C(=O)Nc2ccc(Br)cc21 (stereo not given) | -38 | 100 | x | x
O=c1oc(-c2cccs2)nc2sc3c(c12)CCC3 | -26 | 104 | x | x
Cc1cccc(N(C)c2nc3ccc(C)cc3n3nnnc23)c1 | x | 107 | 145 | 95
CCOC(=O)CN1C(=O)S/C(=C\c2ccc(C(=O)O)cc2)C1=O | x | 100 | 103 | 81
Cc1[nH]c(=O)c(C#N)c(C)c1CCC(=O)OCc1ccc(C#N)cc1 | -26 | x | 70 | 94
CCn1c(C(C#N)/C(=N\S(=O)(=O)c2cccs2)c2ccccc2)nc2ccccc21 (stereo not given) | -8 | x | 129 | 97
CN1CC=C2C(C#N)=C(N)C(C#N)(C#N)C(CCc3ccccc3)C2C1 (stereo not given) | -34 | -8.8* | 109 | 85
CC1CN(CC(O)COC(c2ccccc2)c2ccccc2)CC(C)O1 (stereo not given) | -1 | x | 102 | 100
Cc1cc(Cl)ccc1NC(=O)CCS(=O)(=O)c1cc2c(cc1C)NC(=O)CO2 | x | 106 | 87 | 79
O=C(O)c1ccc2c(c1)C(c1ccccc1)OC2=O (stereo not given) | -25 | 94 | 102 | 83
O=C(O)c1nn(CCN2C(=O)c3ccccc3C2=O)c(=O)c2ccccc12 | -26 | x | 101 | 96
O=c1[nH]c2ccc(Cl)cc2c(-c2ccccc2)c1SC(=S)N1CCOCC1 | x | 94 | 95 | 31
Cc1ccc(CN2C(=O)C3CCCCC3C2=O)cc1S(=O)(=O)NC1CC1 (stereo not given) | -9 | 97 | x | x
CCCc1nc2c(o1)CC(C)(C)CC2=O | -35 | x | 85 | 91
CC1CCCCN1C(=O)COc1ccc(-c2nc(-c3ccccc3)no2)cc1 (stereo not given) | 1 | 109 | x | x
Cc1oc2ncn(C)c(=O)c2c1C(=O)N1CCN(c2ccccc2)CC1 | -39 | 99 | 98 | 87
CC(C)N(C(=O)c1cc2sccc2n1Cc1ccc(F)cc1)C(C)C | 0 | 99 | 94 | 71

Part of the list above in order of SMILES length, largest number first.
SMILES | HCMV NEC inh | GIV-Gai inh | Sa growth 42C | Sa growth 42C second temp
CCn1c(C(C#N)/C(=N\S(=O)(=O)c2cccs2)c2ccccc2)nc2ccccc21 (stereo not given) | -8 | x | 129 | 97
CCCCSc1nnc2c(n1)OC1(Nc3ccccc3-2)C(=O)Nc2ccc(Br)cc21 (stereo not given) | -38 | 100 | x | x
O=c1[nH]c2ccc(Cl)cc2c(-c2ccccc2)c1SC(=S)N1CCOCC1 | x | 94 | 95 | 31
CN1CC=C2C(C#N)=C(N)C(C#N)(C#N)C(CCc3ccccc3)C2C1 (stereo not given) | -34 | -8.8* | 109 | 85
Cc1ccc(CN2C(=O)C3CCCCC3C2=O)cc1S(=O)(=O)NC1CC1 (stereo not given) | -9 | 97 | x | x
CC1CCCCN1C(=O)COc1ccc(-c2nc(-c3ccccc3)no2)cc1 (stereo not given) | 1 | 109 | x | x
Cc1oc2ncn(C)c(=O)c2c1C(=O)N1CCN(c2ccccc2)CC1 | -39 | 99 | 98 | 87
CC(C)N(C(=O)c1cc2sccc2n1Cc1ccc(F)cc1)C(C)C | 0 | 99 | 94 | 71
CC1CN(CC(O)COC(c2ccccc2)c2ccccc2)CC(C)O1 (stereo not given) | -1 | x | 102 | 100
Cc1cccc(N(C)c2nc3ccc(C)cc3n3nnnc23)c1 | x | 107 | 145 | 95
O=C(O)c1ccc2c(c1)C(c1ccccc1)OC2=O (stereo not given) | -25 | 94 | 102 | 83
O=c1oc(-c2cccs2)nc2sc3c(c12)CCC3 | -26 | 104 | x | x
CCCc1nc2c(o1)CC(C)(C)CC2=O | -35 | x | 85 | 91

The list continues:
SMILES | HCMV NEC inh | GIV-Gai inh | Sa growth 42C | Sa growth 42C second temp
COc1cc(C2CC(=O)C3=C(C2)Nc2onc(C)c2C3c2ccccc2)ccc1O (stereo not given) | -24 | 109 | x | x
O=C(NCc1nc(-c2ccccc2)no1)Nc1ccccc1 | -32 | 105 | 104 | 93
Cc1nn(CCCC(=O)Nc2cccc(F)c2)c(=O)c2c1sc1ccccc12 | -18 | 104 | 112 | 92
CS(=O)(=O)N1CCN(C2CCCCC2)CC1 | 11 | 103 | 97 | 112
CC(C)OCCCN1C(=O)c2cc3ccccc3n2CC1(C)C(=O)NC1CCCC1 (stereo not given) | 8 | 101 | x | x
COc1ccccc1N1CCN(C(=O)Cn2c(=O)n3nc(-c4cccc(C)c4)nc3c3ccccc32)CC1 | x | 102 | 166 | 91
CC(=O)Nc1ccccc1OCc1cc(=O)n2nc(C)sc2n1 | -2 | 109 | 90 | 80
CC1CC(O)(Cc2ccccc2)C(C)CN1C (stereo not given) | -27 | 104 | 115 | 79
COc1nc(-c2ccccc2)ccc1-c1noc(-c2cccs2)n1 | -12 | 111 | 98 | 71
COc1ccc(CCNC(=O)CCCn2c(=O)c3ccccc3n(CC(=O)Nc3cccc(C)c3)c2=O)cc1OC | -9 | 102 | 95 | 82
O=C(NCc1ccc2c(c1)OCO2)c1ccc(-n2nc(OCc3ccc(Cl)cc3)ccc2=O)cc1 | -28 | 102 | x | x
CCOC(=O)c1c(C)oc2c1c(C=Nc1cccnc1)c(O)c1ccccc12 | -21 | x | 117 | 96
CCc1ccc(NC(=O)C2CCCN(S(=O)(=O)c3ccc4c(c3)CCCN4C(C)=O)C2)cc1 (stereo not given) | x | 98 | 95 | 85
O=C(NCC1CCCO1)C1CCN(C(=O)c2ccc(Br)cc2)CC1 (stereo not given) | -17 | 102 | 103 | 98
COC(=O)c1ccc(NC(=O)N2CCC(N(C)Cc3cccc(Cl)c3)CC2)cc1 | -13 | 91 | 88 | 79
Cc1cc(NC(=O)COC(=O)Cn2ccc(=O)[nH]c2=O)no1 | -2 | 99 | 94 | 89
CCOC(=O)c1cc(C)n(CC2CCC(C(=O)Nc3ccc(OC)c(OC)c3)CC2)c1C (stereo not given) | -7 | 104&102 | 114 | 93
O=C1c2ccccc2S(=O)(=O)N1C(=O)c1c(Cl)nc2sccn12 | -9 | x | 83 | 92
CCS(=O)(=O)c1nc(S(=O)(=O)c2ccc(C)cc2)c(NCc2ccc(Cl)cc2)s1 | 5 | 107 | 121 | 111
CCc1nonc1NC(=O)COc1ccccc1OC | -17 | 100 | 83 | 85
CCOC(=O)C1CCN(CC(=O)N2C(C)CCCC2C)CC1 (stereo not given) | 10 | 105 | 102 | 110
CC1=C(C(=O)OCCc2ccccc2)C(c2coc3ccc(C)cc3c2=O)C2=C(CC(C)(C)CC2=O)N1 (stereo not given) | -14 | 101 | x | x
Cn1c(=O)n(C)c2cc(CO)ccc21 | -2 | 100 | 92 | 95

Screens deposited in PubChem BioAssay by ICCB-Longwood Screening Facility, Harvard Medical School.
